Mtb H37Rv – Mycobacterium tuberculosis H37Rv growth inhibition, cell based, confirmatory dose response (AID 1949). hit rate 1.6% among 100,000. M. tuberculosis H37Rv growth inhibition. one-dose inhibition, % at 10 µg/mL; IC50 in µg/mL for titrated hits. most inactive calls were filed without a number and no value below 0 was filed;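 active = confirmed in a dose series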;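 note: bacteria grown 7 days with compound before Alamar blue readout; 0% = untreated bacteria and 100% = reference antibiotic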
Active calls of the source: *; i = inactive. An excerpt. The share of hits here may be higher or lower than overall.

SMILES	Mtb H37Rv
COc1ccc(OCc2ccc([N+](=O)[O-])cc2)cc1	8%
O=c1ccc(Oc2nc(N3CCOCC3)nc(N3CCOCC3)n2)n[nH]1	i
O=C(OCC(=O)c1ccc(Cl)cc1Cl)c1ccc(N2C(=O)C3C4C=CC(C5CC45)C3C2=O)cc1 (centres undefined)	i
CCOc1ccc2[nH]c(S(=O)(=O)CC)nc2c1Cl	i
COc1ccc(CN2CCN(C(=O)c3cccs3)CC2)cc1OCc1ccccc1	i
Clc1ccc(OCCSCc2nc3ccccc3[nH]2)cc1	18%
CSc1cccc(NC(=O)c2ccc(N(C)S(C)(=O)=O)cc2)c1	1%
COc1ccc(C2C(Oc3ccccc3)C(=O)N2c2ccc(F)cc2)cc1OC (centres undefined)	i
CCN1CCN(CCOCCOc2c(C)cc(Br)cc2Cl)CC1	i
CCCCn1c2ccccc2c2nnc(SCC(=O)Nc3nnc(C(C)C)s3)nc21	1%

The final 4 records of the part above are carried over, then new ones follow.
SMILES	Mtb H37Rv
CSc1cccc(NC(=O)c2ccc(N(C)S(C)(=O)=O)cc2)c1	1%
COc1ccc(C2C(Oc3ccccc3)C(=O)N2c2ccc(F)cc2)cc1OC (centres undefined)	i
CCN1CCN(CCOCCOc2c(C)cc(Br)cc2Cl)CC1	i
CCCCn1c2ccccc2c2nnc(SCC(=O)Nc3nnc(C(C)C)s3)nc21	1%
COC(=O)c1c(C)oc2ccc(N(C(C)=O)S(=O)(=O)c3cccc4cccnc34)cc12	i
Nc1ncnc(Nc2ccc(OC(F)(F)F)cc2)c1[N+](=O)[O-]	0%
CCc1ccc(O)c(NC(=S)NC(=O)c2cccc3ccccc23)c1	0.16µg/mL*
CCc1noc(C)c1C(=O)Nc1cccc(Cn2cc(Cl)cn2)c1	i
COc1ccc(Cl)cc1NC(=O)CN(c1ccc(C(C)C)cc1)S(C)(=O)=O	3%
CN(CCO)S(=O)(=O)c1cccc(C(=O)O)c1	i
O=C(Nc1ccc(Br)c2cccnc12)c1cc(S(=O)(=O)N2CCCC2)c(Cl)cc1Cl	1%
COc1ccc(NC(=O)N2CCn3c2nc2ccccc23)cc1	i
CC(C)(C)c1ccc(C(=O)Nc2cccc(NC(=O)c3cccs3)c2)cc1	2.3µg/mL*
O=C(Nc1ccc2c(c1)OCO2)c1cc(-c2cccnc2)nc2ccc(Cl)cc12	35%
Cc1cc(Br)ccc1OCC(=O)Oc1ccc(Cl)cc1	i
Cc1nnc(NC(=O)c2ccc3c(c2)C(=O)N(CCC(C)C)C3=O)s1	i
COc1ccc(S(=O)(=O)N(CC(C)C)CC(C)C)cc1	i
Cc1nc(NC(=O)Cc2cccc3ccccc23)ccc1Br	48%
Cc1c(OCC(=O)OCc2ccccc2)ccc2c(C(F)(F)F)cc(=O)oc12	i
Nc1ccc(-c2cc(-c3cccc(N)c3)nc(-c3ccccc3)n2)cc1	i
CS(=O)(=O)N(CC(=O)N1CCN(Cc2ccc3c(c2)OCO3)CC1)c1ccc2c(c1)OCCO2	i
O=S(=O)(Nc1ccc(F)cc1)c1ccccc1	i
CCOc1ccc(-c2nc(NCc3cccc(OC)c3O)sc2C)cc1	3%
Cc1ccc(C2CC(=O)Nc3cc4c(cc32)OCCO4)s1 (centres undefined)	i
COc1ccc(C=O)cc1Cn1cnc2cc(C)c(C)cc21	0%
COc1ccc(NC(=O)c2ccc(Br)o2)c([N+](=O)[O-])c1	2%
Cc1ccc(C(=O)Nc2ccccc2C(=O)Nc2ccccn2)cc1Cl	5%
Cc1ccc2c3c1C1(C(=O)N3C(C)(C)CC2C)C(C#N)=C(N)Oc2cc(O)ccc21 (centres undefined)	9%
Cc1ccc(COc2ccccc2CO)cc1	2%
CCC(C)NC(=O)C1CCN(S(=O)(=O)c2c(C)cc(C)cc2C)CC1 (centres undefined)	i
S=C(NCCCN1CCOCC1)NC1CC1	i
COc1cc(Cl)c(C)cc1NC(=O)c1ccc(Cl)cc1	i
COc1cccc(C(=O)Nc2cccc(OC(C)=O)c2)c1	i
CCc1ccc(OCc2n[nH]c(=S)o2)cc1	i

A portion taken from the entries so far:
SMILES	Mtb H37Rv
S=C(NCCCN1CCOCC1)NC1CC1	i
COc1cc(Cl)c(C)cc1NC(=O)c1ccc(Cl)cc1	i
COc1cccc(C(=O)Nc2cccc(OC(C)=O)c2)c1	i
CCc1ccc(OCc2n[nH]c(=S)o2)cc1	i

Additional structures.
SMILES	Mtb H37Rv
CC(C)c1cc(CN2CCOCC2)cc(C(C)C)c1O	i
COc1ccc(CN(C(=O)c2oc3cc(C)c(C)cc3c2C)C2CCS(=O)(=O)C2)cc1OC (centres undefined)	3%
Cc1nc2cc(NS(=O)(=O)c3ccccc3)ccc2n1C	i
O=C(c1c(F)cccc1F)N1CCOCC1	i
CC(C)c1ccccc1NC(=O)CCC1CCCC1	i
CCOC(=O)c1c(-c2ccccc2)csc1NC(C)=O	2%
CCOc1ccccc1CN1C(=O)C(=O)c2ccccc21	i
COc1cccc(NCc2nc(-c3ccccc3)no2)c1	5%
COc1cc(C(=S)N2CCN(c3ccccc3F)CC2)cc(OC)c1O	i
CCCn1c(Cc2ccc(OC)cc2)nc2ccccc21	2%
COC(=O)C(Cc1ccc(O)cc1)NC(=O)CCOc1ccc(OC)cc1 (centres undefined)	i
CCc1ccc(NC(=O)CN(c2ccccc2Cl)S(C)(=O)=O)cc1	i
O=C(COc1ccccc1[N+](=O)[O-])Nc1ccc(N2CCN(c3c(F)c(F)c(F)c(F)c3F)CC2)cc1	i
COc1ccc(NC(=O)c2cc(-c3ccccc3)nc3ccccc23)c([N+](=O)[O-])c1	3%
Cc1ccccc1NC(=S)Nc1cc(-c2ccccc2)[nH]n1	i
COc1ccc(CCNC(=O)c2cc(OC)c(OC)cc2OC)cc1	i
COc1ccc(Cl)cc1NC(=O)CSc1nc2ccccc2c(=O)n1-c1ccccc1	4%
Cc1nnc(NS(=O)(=O)c2ccc(C(C)(C)C)cc2)s1	i
CCOc1ccc(Cl)cc1S(=O)(=O)NCc1cccnc1	i
COC(=O)C1=CNC=C(C(=O)OC)C1c1cc(OC)ccc1OC	i

Structural class, the compounds so far containing an aryl thioether with sulfur outside any ring (three)
SMILES	Mtb H37Rv
CSc1cccc(NC(=O)c2ccc(N(C)S(C)(=O)=O)cc2)c1	1%
CCCCn1c2ccccc2c2nnc(SCC(=O)Nc3nnc(C(C)C)s3)nc21	1%
COc1ccc(Cl)cc1NC(=O)CSc1nc2ccccc2c(=O)n1-c1ccccc1	4%

(further entries)
SMILES	Mtb H37Rv
COc1cc([N+](=O)[O-])ccc1NC(=S)N1CCCC1	i
Cc1cc(C(=O)Nc2sc(C)c(C)c2C(N)=O)ccc1[N+](=O)[O-]	i
Cc1cccc(NC(=O)c2oc3c(c2C)C(=O)CC(C)(C)C3)n1	i
O=C1N2CN(C3CCCCC3)CN=C2SC1(CO)CO	1%
CCOC(=O)c1c(C)n(-c2ccccc2)c2cc(Br)c(O)c(CN3CCOCC3)c12	i
CCC(Oc1ccccc1)C(=O)N1CCN(c2ccc(OC)cc2)CC1 (centres undefined)	i
CC1CCN(c2ccccc2NC(=O)Cc2ccc(Cl)cc2)CC1	i
C/C=C/c1ccc(Oc2nc([N+](=O)[O-])nn2C)c(OC)c1	i
CCOC(=O)C1CCCN(C(=O)c2cnn3c(C(F)(F)F)cc(-c4cccs4)nc23)C1 (centres undefined)	i
CCN(C(=S)NC(=O)c1sc2ccccc2c1Cl)c1ccccc1	i
CSc1nc(N2CCOCC2)c2c3c(sc2n1)CCCC3	i
COc1ccc(CC(=O)O/N=C(\N)Cc2cccc3ccccc23)cc1OC	i
COc1cc(NC(=O)c2ccccc2Oc2ccccc2)c(OC)cc1Cl	i
O=S(=O)(NCc1ccccc1Br)c1cccs1	4%
Cc1ccc(S(=O)(=O)N(CC(=O)N2CCCCCC2)c2cccc(C)c2C)cc1	4%
Oc1c(C(Nc2cccnc2)c2ccccc2F)ccc2cccnc12 (centres undefined)	1%
COc1ccc(C(=O)Nc2ccc3oc(-c4ccc(C)c(Cl)c4)nc3c2)cc1[N+](=O)[O-]	0%
CC(=O)c1ccc(OCCCN2CCOCC2)cc1	i
CCOC(=O)N1CCN(C(=O)c2ccc(N(Cc3ccc(C)cc3)S(C)(=O)=O)cc2)CC1	i
O=C(Nc1ccccc1OCF)C(F)(F)C(F)(F)C(F)(F)F	i
CN1CCCC1c1cccnc1N (centres undefined)	2%
COC(=O)c1ccc(COc2cc(C)ccc2C(C)C)o1	i
CC(=O)c1cccc(NC(=S)N2CCN(c3ccccc3Cl)CC2)c1	1%
OCCNC(=S)Nc1ccc(Cl)c(Cl)c1	i
COc1ccc(C(=O)NC(=S)Nc2ncccc2C)cc1Br	i
COC(=O)C1=C(C)NC(=O)NC1c1cc(I)c(O)c(OC)c1 (centres undefined)	i
Cc1ccc2ccccc2c1CSc1nc(N)cc(=O)[nH]1	16%
Cc1ccc(NC(=O)CCn2cnc3ccccc3c2=O)c(C)c1	i
Cc1cc([N+](=O)[O-])ccc1NC(=O)CSc1n[nH]c(-c2ccc(Cl)cc2)n1	i
CSc1ccc(Cl)c(C(=O)Nc2cc(C)cc(C)c2)c1	26%
Cc1cc(C)n(-c2ccc(C(=O)Nc3ccccc3)cc2)n1	i
CC(c1ccccc1)n1c(-c2cnccn2)n[nH]c1=S (centres undefined)	i
O=C(CCc1ccccc1)NC(=S)Nc1cccc(Cl)c1Cl	i
CNC(=O)COc1ccc(Br)cc1Cl	i
O=C(NCCCc1ccccc1)C1CCCCC1	29%
Nc1cc(=O)[nH]c(=S)n1CCc1ccccc1	i
Fc1ccccc1Cn1cc(C(=S)N2CCCCC2)c2ccccc21	5%
COc1ccc(C2NC(=O)NC(C)=C2C(=O)OC(C)(C)C)cc1OC (centres undefined)	i
CCSc1nnc(NC(=O)c2c(F)c(F)c(F)c(F)c2F)s1	i
Clc1ccc(OCCCCCN2CCCCC2)c(Cl)c1	i
O=C(CSc1nnc(-c2ccco2)o1)Nc1ccc(Br)cc1	i
O=C(Nc1ccc(CN2CCOCC2)cc1)c1cc(Br)ccc1Cl	i
O=C1OC(C(=O)Nc2c(Cl)cccc2Cl)Cc2ccccc21 (centres undefined)	i
CCSc1ccc(C(=O)Nc2cccc(C)n2)cc1[N+](=O)[O-]	2%
COC(=O)c1ccccc1NC(=O)C1(c2ccc(OC)c(OC)c2)CCCC1	0%
COc1ccccc1NC(=O)C12CCC(C1)C(C)(C)C2=O (centres undefined)	i
COc1ccccc1NC(=S)N1CCC(Cc2ccccc2)CC1	2%
C=CCn1c(SCc2cccc(Cl)c2)nnc1-c1ccncc1	i
Cc1ccc(Nc2ncnc3c2cnn3-c2ccc(Cl)cc2)cc1	i
CN1CCN(CCOCCOc2ccc(Cl)cc2C(C)(C)C)CC1	i

The list goes on.
SMILES	Mtb H37Rv
O=C(NCc1cccnc1)C(=O)Nc1cccc(F)c1	3%
Cc1nnc(NC(=O)C2CCCCC2C(=O)O)s1 (centres undefined)	i
CCOC(=O)c1sc(Nc2ccccn2)nc1C	i
Cc1cc2ccccc2n2c(SCC(=O)NCC3CCCO3)nnc12 (centres undefined)	i
Cc1ccccc1CSCCNS(=O)(=O)c1cccs1	1%
COc1cccc(CCNC2CC(=O)N(c3ccc(NC(C)=O)cc3)C2=O)c1 (centres undefined)	i
Cc1cccc(C(=O)NC(=S)Nc2ccc(I)cn2)c1	i
C=CCSc1nnc2n(C)c(=O)c3c(n12)-c1ccccc1CC31CCCCC1	11%
COc1ccc(NC(=O)CNS(=O)(=O)c2ccccc2)cc1OC	i
COc1ccccc1Cc1nc(-c2cccc([N+](=O)[O-])c2)no1	i
CC(C)Cc1ccc(S(=O)(=O)Nc2cccnc2)cc1	i
CCOC(=O)C(=O)Nc1cc(Cl)ccc1OC	i
CCc1cc(C(=O)OC)c(NC(=S)NNC(=O)c2csc3ccccc23)s1	i
COc1ccc(-n2nc3ccc(NS(C)(=O)=O)cc3n2)cc1Cl	i
CN1CC(=O)N(c2ccc(Cl)cc2)C1=S	i
COC(=O)c1cn(-c2ccccc2)nc1-c1ccc(F)cc1	1%
Cc1ccccc1OCc1nnc(SCC(=O)n2c3c(c4ccccc42)CCCC3)n1C	i
Cc1cc(=O)oc2c1ccc1occ(NO)c12	i
COC(=O)c1c(NC(=O)c2cc3c(s2)CCCCC3)sc(C(=O)N(C)C)c1C	i
O=C(Cc1ccc(Cl)cc1)NC(=S)Nc1cccc2ncccc12	i
O=C1CC(c2ccccc2)CC2=C1C(c1ccc([N+](=O)[O-])cc1)Nc1ccccc1N2 (centres undefined)	i
CCc1cc(C(=O)OC)c(NC(=S)NCc2ccc(Cl)c(Cl)c2)s1	0.14µg/mL*
c1ccn2cc(-c3ccc4c(c3)OCO4)cc2c1	1%
CCSc1ccccc1C(=O)Nc1nnc(CCc2ccccc2)s1	i
Cc1c(OCC(=O)N2CCCc3ccccc32)ccc2c(-c3ccccc3)cc(=O)oc12	25%
CS(=O)(=O)N(Cc1ccc(C(=O)Nc2ccccc2F)cc1)c1ccccc1	i
Cc1ccc(Cn2nc(C)c(NC(=O)c3cnn4c(C(F)F)cc(C)nc34)c2C)cc1	i
CSc1ccc(C=NN2CCN(Cc3ccc(C)cc3C)CC2)cc1	1%
CC1=C(C(=O)Nc2ccc(F)cc2)C(c2ccc(Cl)c(Cl)c2)C2=C(CCCC2=O)N1 (centres undefined)	i
Cc1ccc(C)c(S(=O)(=O)Nc2cccc3ccccc23)c1	6%
COCCNC(=S)NNC(=O)C1(C)CC1(Cl)Cl (centres undefined)	i
COC(=O)C1=C(C)N(c2ccc([N+](=O)[O-])cc2)C(=O)C1	6%
CCOC(=O)c1sc2ncn(CC(=O)N3CCOCC3)c(=O)c2c1C	i
